Vaccinia stage: Vaccinia orthopox stage-specific inhibition; Vaccinia-infected cells, mCherry/Venus stage reporter fluorescence; stronger effect = lower value; some inactives read as strong as hits; AID 1053133; actives 0.01% (n = 89,000); activity change (mCherry), % (no concentration beside the values);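 active = mCherry past -33% and 40 or more points under the early reporter, replicates agreeing; inconclusive = past -33% without that gap or agreement; tested in A549 cells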;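 also: scaled between vehicle wells and reference inhibitor wells; 23 nL library stock went into each well; one replicate is shown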
Vaccinia stage Venus: also measured in Vaccinia stage; calls as there; activity change (Venus), %; measured here: Venus reporter, other viral stage;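 negative = less Venus signal; first of two replicates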
Active calls of the source: *; ? = inconclusive; / = no result given. Some of the compounds tested; rates above refer to the full screens.

SMILES | Vaccinia stage | Vaccinia stage Venus
CCC(=O)N(C)C[C@@H]1Oc2cc(C#CCC3CCCC3)ccc2S(=O)(=O)N([C@@H](C)CO)C[C@H]1C | ? | /
O=C(c1ccc(F)cc1)N1CC[C@@H]2[C@H]1c1cc(C#Cc3ccc(F)cc3)ccc1N[C@@H]2CO | 9 | 9
CCCNC(=O)N1[C@H](CO)[C@H]2c3ccccc3N(C(=O)NC(C)C)C[C@H]21 | 18 | 8
COc1ccc2c3c(n(C)c2c1)[C@H](CO)NCC31CN(Cc2ccc(-c3ccccn3)cc2)C1 | ? | /
C[C@H](CO)N1C[C@H](C)[C@H](CN(C)Cc2ccc(Oc3ccccc3)cc2)Oc2ccc(NC(=O)Nc3ccc(F)cc3)cc2CC1=O | ? | /
COc1ccc(S(=O)(=O)Nc2ccc3c(c2)C(=O)N([C@H](C)CO)C[C@H](C)[C@@H](CN(C)Cc2ccc(C(=O)Nc4ccccc4N)cc2)O3)cc1 | 15 | 5
C[C@@H]1CN([C@H](C)CO)C(=O)c2cccc(NC(=O)c3nc4ccccc4s3)c2O[C@@H]1CN(C)C(=O)Nc1ccc(C(F)(F)F)cc1 | -13 | -3
C[C@@H]1CN([C@@H](C)CO)C(=O)c2cc(C#CC3CC3)cnc2O[C@H]1CN(C)C(=O)c1ccccc1 | 17 | 6
CC=Cc1ccc2n(c1=O)C[C@H]1[C@H](CO)[C@@H](C(=O)NCCC)[C@@H]2N1Cc1ccccc1 (mixture of isomers) | 14 | 7
O=C(Nc1ccccc1F)N1CCCCN2[C@H](CO)[C@@H](c3ccc(C#Cc4ccccc4)cc3)[C@@H]2C1 | 2 | -15
CO[C@H]1CN(C)C(=O)c2cc(NC(=O)c3cnccn3)ccc2OC[C@@H](C)N(C(=O)C2CC2)C[C@H]1C | 11 | 6
O=C(N[C@H]1C=C[C@@H](CC(=O)N2CCOCC2)O[C@@H]1CO)c1ccc2c(c1)OCO2 | 0 | 6
Cc1ccc(S(=O)(=O)Nc2ccc3c(c2)C(=O)N([C@H](C)CO)C[C@@H](C)[C@@H](CN(C)C(=O)CCCN(C)C)OCCCC[C@@H](C)O3)cc1 | 9 | -7
Cc1noc(C)c1S(=O)(=O)Nc1ccc2c(c1)C(=O)N([C@H](C)CO)C[C@@H](C)[C@H](CN(C)C(=O)Nc1ccc(C(F)(F)F)cc1)O2 | -7 | -10
CCC(=O)N1CC(=O)N2[C@H](C1)[C@H](c1ccc(C#CC3CCCC3)cc1)[C@@H]2CO | ? | /
Cc1ccc(S(=O)(=O)NCC[C@@H]2CC[C@H](NC(=O)c3ccccn3)[C@H](CO)O2)cc1 | 4 | 1
C[C@@H]1CN([C@H](C)CO)C(=O)Cc2cc(NS(C)(=O)=O)ccc2O[C@@H]1CN(C)C | 2 | 2
Cc1noc(C)c1S(=O)(=O)Nc1ccc2c(c1)C(=O)N([C@@H](C)CO)C[C@H](C)[C@@H](CN(C)C(=O)Nc1ccc(C(F)(F)F)cc1)O2 | -14 | -9
CNC[C@H]1OCc2ccccc2-c2ccccc2C(=O)N([C@H](C)CO)C[C@H]1C | -4 | 8
CC(C)NC(=O)Nc1ccc2c(c1)C(=O)N([C@@H](C)CO)C[C@H](C)[C@H](CN(C)C)OCCCC[C@@H](C)O2 | 4 | -5
C[C@@H]1CN([C@H](C)CO)C(=O)c2cccc(NC(=O)Nc3ccccc3)c2O[C@@H]1CN(C)C(=O)Nc1ccc(F)cc1 | 4 | 6
CO[C@@H]1CN(C)C(=O)c2ccc(NC(=O)c3ccccc3F)cc2OC[C@H](C)N(C(=O)c2ccccc2F)C[C@@H]1C | 1 | -2
CC(C)NC(=O)Nc1ccc2c(c1)C(=O)N([C@@H](C)CO)C[C@@H](C)[C@H](CN(C)S(=O)(=O)c1ccc(F)cc1)O2 | -6 | 4
CN(C)C(=O)c1cccc(-c2ccccc2[C@H]2[C@@H](C#N)N(C(=O)C3CCC3)[C@@H]2CO)c1 | 5 | 2
O=C(C[C@H]1C[C@H]2c3cc(NC(=O)Nc4ccccc4F)ccc3O[C@H]2[C@H](CO)O1)NCc1ccccn1 | 8 | 5

Reformatted: entries from further up.
Sequence of screens – Vaccinia stage	Vaccinia stage Venus
CCCNC(=O)N1[C@H](CO)[C@H]2c3ccccc3N(C(=O)NC(C)C)C[C@H]21
→ 18	8
COc1ccc2c3c(n(C)c2c1)[C@H](CO)NCC31CN(Cc2ccc(-c3ccccn3)cc2)C1
→ ?	/
C[C@H](CO)N1C[C@H](C)[C@H](CN(C)Cc2ccc(Oc3ccccc3)cc2)Oc2ccc(NC(=O)Nc3ccc(F)cc3)cc2CC1=O
→ ?	/
COc1ccc(S(=O)(=O)Nc2ccc3c(c2)C(=O)N([C@H](C)CO)C[C@H](C)[C@@H](CN(C)Cc2ccc(C(=O)Nc4ccccc4N)cc2)O3)cc1
→ 15	5
C[C@@H]1CN([C@H](C)CO)C(=O)c2cccc(NC(=O)c3nc4ccccc4s3)c2O[C@@H]1CN(C)C(=O)Nc1ccc(C(F)(F)F)cc1
→ -13	-3
C[C@@H]1CN([C@@H](C)CO)C(=O)c2cc(C#CC3CC3)cnc2O[C@H]1CN(C)C(=O)c1ccccc1
→ 17	6

Going on with the list.
SMILES | Vaccinia stage | Vaccinia stage Venus
C[C@H](CO)N1C[C@H](C)[C@@H](CN(C)S(=O)(=O)c2ccc(F)cc2)Oc2ccc(NC(=O)Nc3ccc4c(c3)OCO4)cc2CC1=O | -1 | 3
C[C@H](CO)N1C[C@H](C)[C@@H](CN(C)C(=O)NC2CCCCC2)Oc2ccc(NS(=O)(=O)c3ccc(Cl)cc3)cc2CC1=O | -16 | -8
CO[C@H]1CN(C)C(=O)c2ccc(NC(C)=O)cc2OC[C@@H](C)N(C(=O)c2ccccn2)C[C@H]1C | 5 | 4
CN1C(=O)c2cc(NC(=O)c3cccc(C(F)(F)F)c3)ccc2OC[C@H]2O[C@H](CC(=O)NCCN3CCCC3)CC[C@H]21 | -8 | -6
C[C@@H]1CN([C@H](C)CO)S(=O)(=O)c2ccc(C#CC3CC3)cc2O[C@@H]1CN(C)Cc1cccnc1 | 9 | 0
C[C@H](CO)N1C[C@H](C)[C@@H](CN(C)C(=O)Nc2ccccc2)Oc2c(NC(=O)CCCCCC(=O)Nc3ccccc3N)cccc2C1=O | 19 | 4
O=C(N[C@H]1CC[C@@H](CCNC(=O)c2ccccc2F)O[C@@H]1CO)c1ccc2c(c1)OCO2 | -1 | 5
C[C@H](CO)N1C[C@H](C)[C@H](CN(C)S(=O)(=O)c2ccccc2)Oc2ccc(NS(=O)(=O)c3cn(C)cn3)cc2CC1=O | 8 | 8
COc1ccc(S(=O)(=O)Nc2ccc3c(c2)C(=O)N([C@H](C)CO)C[C@H](C)[C@H](CN(C)C(=O)C2CCCCC2)OCCCC[C@H](C)O3)cc1 | ? | /
O=C(Cc1ccccc1)N1C[C@H]2[C@@H](c3ccccc31)[C@@H](CO)N2C(=O)Cc1ccccc1 | 22 | 10
COc1cccc(-c2cnc3c(c2)C(=O)N([C@@H](C)CO)C[C@@H](C)[C@@H](CN(C)CC2CCOCC2)O3)c1 | -4 | -2
O=C(Nc1ccc(F)cc1)N[C@@H]1CC[C@H](CCn2cc(-c3ccc(F)cc3)nn2)O[C@@H]1CO | -10 | -9
C[C@@H]1CN([C@H](C)CO)C(=O)Cc2cc(NC(=O)Cc3cn(C)c4ccccc34)ccc2O[C@H]1CN(C)C(=O)Nc1ccc2c(c1)OCO2 | 23 | 23
C[C@H](CO)N1C[C@H](C)[C@H](CN(C)C(=O)c2ccccc2F)Oc2cc(-c3ccc(F)cc3)ccc2S1(=O)=O | ? | /
COc1ccc(C#Cc2ccc3c(c2)O[C@H](CN(C)C(=O)NC2CCCCC2)[C@H](C)CN([C@@H](C)CO)S3(=O)=O)cc1 | -14 | -7
COc1cccc(C#Cc2cnc3c(c2)C(=O)N([C@@H](C)CO)C[C@H](C)[C@H](CN(C)CC2CC2)O3)c1 | -11 | -10
CCNC(=O)C[C@@H]1CC[C@H]2[C@@H](COc3ccc(NC(=O)c4cscn4)cc3C(=O)N2C)O1 | 0 | 1
COc1cccc(S(=O)(=O)N2CCCCN3[C@H](CO)[C@@H](c4ccc(C#CCC(C)C)cc4)[C@@H]3C2)c1 | -13 | -9
CCCN1[C@H](C(=O)N[C@H](C)c2ccccc2)[C@@H](CO)[C@@H]2Cn3c(cccc3=O)[C@@H]21 | 11 | 13
C[C@@H]1CN([C@H](C)CO)C(=O)Cc2cc(NC(=O)Nc3ccc(C(F)(F)F)cc3)ccc2O[C@H]1CN(C)CC1CCCCC1 | ? | /
CC(C)NC(=O)N(C)C[C@@H]1Oc2cc(-c3ccccc3F)ccc2S(=O)(=O)N([C@H](C)CO)C[C@@H]1C | -17 | -15
CNC(=O)C[C@@H]1CC[C@@H]2[C@H](COC[C@H](O)CN2C(=O)c2ccccn2)O1 | -1 | 5
O=C(NCCN1CCCC1)[C@H]1[C@H](CO)[C@H]2Cn3c(cccc3=O)[C@@H]1N2C(=O)NC1CCCC1 | 4 | -4
N#C[C@H]1[C@H](c2ccccc2-c2ccc(F)cc2)[C@H](CO)N1c1ncc(-c2ccccc2)s1 | 6 | 3
CN1C(=O)c2cc(NS(C)(=O)=O)ccc2OC[C@@H]2O[C@H](CC(=O)NCc3ccccc3)CC[C@@H]21 | 23 | 19

Next part; the last 2 above are carried over.
SMILES | Vaccinia stage | Vaccinia stage Venus
N#C[C@H]1[C@H](c2ccccc2-c2ccc(F)cc2)[C@H](CO)N1c1ncc(-c2ccccc2)s1 | 6 | 3
CN1C(=O)c2cc(NS(C)(=O)=O)ccc2OC[C@@H]2O[C@H](CC(=O)NCc3ccccc3)CC[C@@H]21 | 23 | 19
CCCN(C)C[C@@H]1Oc2ncc(C#Cc3ccc(OC)c(OC)c3)cc2C(=O)N([C@H](C)CO)C[C@@H]1C | 1 | 2
COC(=O)C[C@@H]1CC[C@@H]2[C@@H](COc3ccc(NC(=O)Nc4cccc(Cl)c4)cc3C(=O)N2C)O1 | -32 | -19
C/C=C/c1ccc([C@H]2[C@H](CO)N3C(=O)CN(C(=O)c4ccncc4)C[C@@H]23)cc1 | 4 | -2
C[C@@H]1CN([C@H](C)CO)C(=O)c2cc(NC(=O)CCCCCC(=O)Nc3ccccc3N)ccc2O[C@@H]1CN(C)Cc1ccncc1 | -5 | 6
CC(C)NC(=O)N(C)C[C@@H]1OCc2cnnn2CCCC(=O)N([C@H](C)CO)C[C@@H]1C | 5 | -3
COc1ccc(CN(C)C[C@@H]2Oc3ccc(NS(=O)(=O)c4ccccc4)cc3C(=O)N([C@@H](C)CO)C[C@@H]2C)cc1 | 25 | 22
C[C@H]1CN([C@@H](C)CO)C(=O)c2cc(N(C)C)ccc2O[C@@H]1CN(C)Cc1ccncc1 | 17 | 1
O=C(C[C@H]1CC[C@H](NC(=O)Nc2ccc(F)cc2)[C@H](CO)O1)NCc1cccc(F)c1 | -10 | -8
CN1C(=O)c2cc(NC(=O)c3ccccc3)ccc2OC[C@H]2O[C@H](CC(=O)NCC3CC3)CC[C@@H]21 | 3 | 8
COc1ccc(CN(C)C[C@@H]2Oc3c(NC(=O)Nc4c(C)noc4C)cccc3C(=O)N([C@H](C)CO)C[C@@H]2C)cc1 | -1 | -4
COCC(=O)Nc1ccc2c(c1)C(=O)N(C)C[C@H](OC)[C@@H](C)CN(Cc1ccccc1F)[C@@H](C)CO2 | -24 | -15
O=C(Cc1ccccn1)N[C@H]1CC[C@@H](CCNS(=O)(=O)c2cccc(F)c2)O[C@@H]1CO | -4 | 5
Cc1ccc(-c2ccc3c(c2)O[C@@H](CN(C)Cc2ccccn2)[C@@H](C)CN([C@@H](C)CO)S3(=O)=O)cc1 | -31 | -28
CC=Cc1ccc2n(c1=O)C[C@H]1[C@H](CO)[C@@H](C(=O)N[C@H](C)c3ccccc3)N(C(=O)c3cnccn3)[C@@H]21 (mixture of isomers) | 7 | 5
Cc1ccc(S(=O)(=O)Nc2ccc3c(c2)C(=O)N([C@@H](C)CO)C[C@H](C)[C@H](CN(C)S(=O)(=O)c2ccc(C)cc2)OCCCC[C@@H](C)O3)cc1 | 4 | 0
Cc1ccc(-c2ccc3c(c2)O[C@@H](CN(C)Cc2cncnc2)[C@H](C)CN([C@H](C)CO)S3(=O)=O)cc1 | ? | /
COc1ccc(S(=O)(=O)N(C)C[C@H]2Oc3ccc(NC(=O)C4CCCCC4)cc3C(=O)N([C@@H](C)CO)C[C@@H]2C)cc1 | -5 | 0
C[C@H]1CN([C@@H](C)CO)C(=O)Cc2cc(NC(=O)CCCCCC(=O)Nc3ccccc3N)ccc2O[C@H]1CN(C)Cc1ccc(Cl)c(Cl)c1 | ? | /
CN1C(=O)c2cc(NC(=O)c3cccs3)ccc2OC[C@H]2O[C@@H](CC(=O)NCC(F)(F)F)CC[C@@H]21 | -9 | -7
C[C@@H]1CCCCO[C@@H](CN(C)CC2CCCCC2)[C@H](C)CN([C@H](C)CO)C(=O)c2cc(NC(=O)Nc3ccc(F)cc3)ccc2O1 | ? | /
O=C(c1ccccn1)N1C[C@H]2[C@@H](c3ccccc31)[C@@H](CO)N2C(=O)c1ccccn1 | -1 | 1
O=C(C[C@H]1CC[C@H]2[C@@H](COC[C@@H](O)CN2S(=O)(=O)c2ccccc2F)O1)N1CCC(Cc2ccccc2)CC1 | -15 | 0
COc1ccc(-c2ccc3c(c2)O[C@H](CN(C)Cc2ccccc2C(=O)O)[C@@H](C)CN([C@H](C)CO)S3(=O)=O)cc1 | 4 | 2
Cc1ccc(S(=O)(=O)Nc2ccc3c(c2)C(=O)N([C@@H](C)CO)C[C@H](C)[C@@H](CN(C)C(=O)Nc2ccc4c(c2)OCO4)OCCCC[C@H](C)O3)cc1 | -23 | -17
CCCN1C[C@@H](C)[C@H](OC)CN(C)C(=O)c2cc(NC(=O)NC3CCCCC3)ccc2OC[C@H]1C | -33 | -19
